Source: PubChem
Arbovirus inh – antivirals against arbovirus infection, primary screen, cell-based, full library, 10K replicate subset; arbovirus infection cell-based antiviral screen; inhibition, % at 10 µM; 0.37% of 200,000 active; AID 1251, 2008;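 active = inhibition from about 30%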;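 also: bluetongue infection of BSR cells; cell survival read as ATP light after 72 h; 0% = infected wells without compound and 100% = uninfected wells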
Mtb H37Rv – M. tuberculosis H37Rv growth inhibitors, H37Rv strain (AID 1626); one-dose inhibition, % at 10 µM; IC50 in µM for titrated hits; M. tuberculosis H37Rv growth inhibition; higher % means a stronger effect; 0.95% of 220,000 active;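 active = confirmed in a dose series; inconclusive = inhibition above 80% but not taken into the dose series; inactive = below 80% or under 30% at every dose of the series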;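 also: bacteria incubated seven days before Alamar blue readout; 0% = bacteria only wells and 100% = bacteria with antibiotic wells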
RecA splice inh – Mtb RecA intein splicing inhibitors, primary screen, biochemical, fluorescence, HTS | Protein RecA (Mycobacterium tuberculosis (strain ATCC 25618 / H37Rv)), P9WHJ3 | cell-free RecA intein splicing | inhibition, %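 (about 9 µM by stock and volumes)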 | 0.75% of 290,000 active | AID 2221, 2009; in the data active = inhibition above about 30%; inconclusive = no clear call, values can overlap the other calls;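 also: 0% = vehicle wells and 100% = reference inhibitor control wells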
Target sequence (P9WHJ3 whole entry, looked up, canonical isoform): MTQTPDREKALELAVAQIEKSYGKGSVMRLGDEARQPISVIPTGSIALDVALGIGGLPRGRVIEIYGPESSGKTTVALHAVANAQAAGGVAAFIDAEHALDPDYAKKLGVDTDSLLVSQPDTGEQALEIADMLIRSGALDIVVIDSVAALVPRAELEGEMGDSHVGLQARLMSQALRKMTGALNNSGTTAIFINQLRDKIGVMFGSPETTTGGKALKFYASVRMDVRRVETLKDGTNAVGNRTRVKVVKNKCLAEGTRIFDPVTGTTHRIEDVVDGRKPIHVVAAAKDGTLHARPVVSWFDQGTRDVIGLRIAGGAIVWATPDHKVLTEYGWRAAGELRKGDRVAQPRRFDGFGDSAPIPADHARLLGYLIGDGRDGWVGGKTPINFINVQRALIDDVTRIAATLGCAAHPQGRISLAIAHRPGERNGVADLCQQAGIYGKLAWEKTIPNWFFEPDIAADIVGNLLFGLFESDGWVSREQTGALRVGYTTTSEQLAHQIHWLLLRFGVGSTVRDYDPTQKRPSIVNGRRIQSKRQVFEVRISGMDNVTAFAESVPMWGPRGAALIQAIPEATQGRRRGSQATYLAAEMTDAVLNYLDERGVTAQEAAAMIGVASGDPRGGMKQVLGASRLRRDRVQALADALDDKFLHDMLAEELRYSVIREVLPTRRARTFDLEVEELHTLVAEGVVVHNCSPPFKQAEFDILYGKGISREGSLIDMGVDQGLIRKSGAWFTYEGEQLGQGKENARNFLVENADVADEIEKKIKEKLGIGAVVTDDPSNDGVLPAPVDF
YopH PTP inh – YopH tyrosine phosphatase inhibitors, primary screen, biochemical, fluorescence Ex485/Em525 | YopH tyrosine phosphatase [Yersinia enterocolitica] | inhibition, %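 (about 10 µM by stock and volumes)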 | 0.16% of 140,000 active | AID 898, 2007;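 active = inhibition of 50% or more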;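 also: controls were vehicle for no effect and minimum signal wells for full effect; inactives centre near -20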
Mtb bLac sens – beta-lactam sensitization of Mtb H37Rv, H37Rv; 0.27% of 330,000 active; inhibition, % at 25 µM; M. tuberculosis H37Rv growth with meropenem, percent inhibition; hits of this screen are not shown here;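 active = about 74% or more and at least 40 points above the plate without the antibiotic, then above 30% in a dose series; inconclusive = first-round hits that could not be retested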;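 also: growth measured after seven days incubation then overnight dye step; 0% = bacteria only wells and 100% = bacteria with antibiotic; twin plates without the antibiotic show which effects depend on it; some results filed as inactive read as strong as hits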
Arbovirus inh repeat – further read-out of Arbovirus inh, marked with its call; inhibition, %; measured here: 10K subset replicate screen; many hits read low in the repeat;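 first of two repeat runs on a subset; 0% = infected and 100% = uninfected wells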
* = called active by the depositor; u = inconclusive; x = not tested or not shown. Only part of the results is shown. The share of hits here may be higher or lower than overall.

SMILES | Arbovirus inh | Mtb H37Rv | RecA splice inh | YopH PTP inh | Mtb bLac sens | others
CCN(CC)CCN1C(=O)C2C(C(=O)Nc3ccc(C(C)C)cc3)C3C=CC2(O3)C1C(=O)NC1CCCCC1 (stereo not drawn) | x | x | 1.0 | x | 4
Cc1cccc(NCc2nc(SCC(=O)Nc3ccccc3Br)n[nH]2)c1 | x | x | 2.0 | x | 2
Cc1scc(C(=O)N/N=C/c2ccc([N+](=O)[O-])o2)c1C | x | x | 15 | x | 100
O=C(c1ccc(F)cc1)N1CCN(c2ccc([N+](=O)[O-])cc2-n2cccc2)CC1 | x | 20% | 11 | x | 28
COc1ccc(/C=C2/C(=O)N(c3ccccc3)N=C2C)cc1Br | x | x | 45* | x | 3
O=C(O)c1ccc2cc(-c3ccccc3)[nH]c2c1 | x | x | -0.6 | x | 2
Cc1cc(=O)[nH]c(SCC(=O)N2CCN(S(=O)(=O)c3ccccc3)C2)n1 | 3 | 0% | 0.7 | x | -8
O=[N+]([O-])c1ccc(Sc2cccc[n+]2[O-])c2nonc12 | x | u | 45* | x | x
COc1ccccc1Nc1nc(N)nc(CSC(=S)N2CCC(C)CC2)n1 | -5 | 11% | 5.0 | -34 | 9
Cc1ccc(-c2nc(-c3ccccc3)no2)c(Cl)c1 | 4 | 15% | 6.5 | -43 | 4 | Arbovirus inh repeat=5
COc1ccc(Br)cc1/C=N/NC(=O)CNC(=O)/C=C/c1ccccc1 | -25 | -2% | 1.9 | -36 | 84
Cc1cccc(C(=O)N2CCN(S(=O)(=O)N3CCCCCC3)CC2)c1 | x | x | 0.9 | x | 1
O=C(CN1CCN(S(=O)(=O)/C=C/c2ccccc2)CC1)NCC(F)(F)F | x | x | 1.1 | x | -1
O=C(CCC(=O)OCC(=O)c1ccccc1)NC1CCCCC1 | 2 | -9% | 0.4 | 6 | 14 | Arbovirus inh repeat=3
CN(C)c1ccc(/C=C(/C#N)C(=O)NCc2ccccc2)o1 | -14 | 2% | -5.2 | -23 | 0
NC(=O)c1ccc(C(F)(F)F)n(Cc2ccc(Cl)cc2)c1=O | -4 | 9% | 0.1 | -21 | -4
c1csc(C2Nc3ccccc3-c3nc4ccccc4n32)c1 (stereo not drawn) | 18 | 12% | -15 | -3 | u
CC(C)C1OC2c3cccc4cccc(c34)C2N1c1ccccc1 (stereo not drawn) | -12 | -3% | 19 | 31 | -9
COc1cccc(-c2nc(-c3ccccc3)c(-c3ccccc3)[nH]2)c1OCC(=O)O | x | x | 8.1 | x | -3
Cc1cccc2cc(CN(Cc3ccco3)C(=O)c3cccs3)c(=O)[nH]c12 | -5 | -2% | -2.8 | -4 | -2
COCCn1c(SCC(=O)Nc2cc(C)on2)nnc1-c1ccco1 | 0 | -5% | 0.5 | -23 | -5
COc1ccc(S(=O)(=O)N2CCCC(C(=O)N3CCCC3)C2)cc1OC (stereo not drawn) | x | x | 0.1 | x | -8
O=C(COC(=O)c1ccccc1F)NNC(=O)c1ccccc1 | x | x | 0.3 | x | 0
Cc1ccc2c(c1)CC1(CN2C)C(=O)OC(C)(C)OC1=O | -1 | 2% | -7.0 | -37 | x
COc1ccc(OCC(=O)NNC(=O)C(=O)N2CCCC2)cc1 | -8 | 8% | -4.1 | -23 | -8

Carrying on:
SMILES | Arbovirus inh | Mtb H37Rv | RecA splice inh | YopH PTP inh | Mtb bLac sens | others
CC(=O)N1CCN(S(=O)(=O)c2c(F)cc(F)c(Cl)c2F)CC1 | 6 | 6% | 0.5 | x | -7
CCOC(=O)CNC(=O)c1cn(CC)c(=O)c2cc(OC)c(OC)cc12 | 3 | -14% | -0.6 | -31 | -4 | Arbovirus inh repeat=3
O=C(NCCc1cccc(Cl)c1)c1cc2ccccc2oc1=O | x | x | -2.6 | x | 3
Cc1ccc(S/C=C\C(=O)c2ccccc2)cc1 | -37 | 5.5µM* | 8.2 | -15 | 92
O=C(COc1nc2ccccc2nc1N1CCOCC1)N1CCc2ccccc21 | -16 | -4% | 4.2 | 11 | x
COc1ccc(N(CC(=O)Nc2cccc(N(C)S(C)(=O)=O)c2)S(=O)(=O)c2ccccc2)cc1Cl | 2 | 1% | 6.5 | x | 34
Cc1nc2ccccc2n1CCOc1ccc([N+](=O)[O-])cc1 | 1 | -5% | 7.8 | x | -11
Cc1ccc2c(c1)N(CCC(=O)NC(C)C)C(=O)CO2 | -1 | 0% | -0.7 | -9 | 0
COc1ccc(-c2nc(C(N)=O)c3[nH]c(=O)n(-c4ccccc4OC)c3n2)c(OC)c1 | -3 | 1% | 2.7 | -21 | 2 | Arbovirus inh repeat=-6
Cc1cccc(N2CCN(C(=S)Nc3ccc4nc(N5CCN(C)CC5)cc(C)c4c3)CC2C)c1 (stereo not drawn) | -12 | u | 0.9 | x | 93
COc1ccc(NC2CS(=O)(=O)CC2NCc2ccco2)cc1 (stereo not drawn) | 8 | -5% | 1.1 | -26 | -10 | Arbovirus inh repeat=5
O=C(CCN1C(=O)c2ccc([N+](=O)[O-])cc2C1=O)Nc1cccc(O)c1 | -4 | 1% | -4.3 | -26 | 0
Cc1ccc(N2CC(C(=O)NCc3ccccn3)CC2=O)cc1 (stereo not drawn) | 7 | -7% | -1.3 | -12 | -2
O=C1c2cccc(O)c2C(=O)c2c(O)cc(CO)cc21 | x | 13% | 0.4 | x | -1
COC(=O)Cn1cnc2ccccc2c1=O | 7 | -11% | -3.0 | -8 | -1
N#Cc1ncn(-c2ccc(Oc3ccccc3)cc2)c1N | -3 | 15% | 2.8 | x | -9
O=c1[nH]c2cccc(Cl)c2n(CCNc2ncc(C(F)(F)F)cc2Cl)c1=O | 3 | -3% | 0.6 | -23 | -4
CCOc1ccccc1NC(=O)c1ccc2nccnc2c1 | 2 | 4% | 3.3 | -13 | -5
COc1ccc(CNC(=O)C(c2ccncc2)N(C(=O)Cc2cccs2)c2ccccc2C)cc1 (stereo not drawn) | 14 | 11% | -0.7 | -58 | 11
COc1cccc(/C=N/NC(=O)CCc2c(C)n[nH]c2C)c1O | x | -4% | -3.8 | x | 68
CCCCc1nnc(SCC(=O)NC2CCCCC2)n1C | x | x | 3.3 | x | -10
CS(=O)(=O)N1CCN(C/C=C/c2ccccc2)CC1 | 6 | -2% | x | 8 | -1
COc1cccc(-n2c(SCC(=O)Nc3nccs3)nnc2-c2ccoc2C)c1 | 0 | 2% | 2.0 | -11 | -11
C=CCc1ccc(OCCOc2ccc(/C=N/n3cnnc3)cc2OCC)c(OC)c1 | 7 | 31% | 0.5 | 1 | 89
O=c1c2c(-c3ccccc3)csc2ncn1/N=C/c1ccc(O)c([N+](=O)[O-])c1 | 7 | 47% | 2.4 | x | 99

Among those listed so far, these have two or more sulfur atoms:
SMILES | Arbovirus inh | Mtb H37Rv | RecA splice inh | YopH PTP inh | Mtb bLac sens | others
Cc1cc(=O)[nH]c(SCC(=O)N2CCN(S(=O)(=O)c3ccccc3)C2)n1 | 3 | 0% | 0.7 | x | -8
COc1ccccc1Nc1nc(N)nc(CSC(=S)N2CCC(C)CC2)n1 | -5 | 11% | 5.0 | -34 | 9
COc1ccc(N(CC(=O)Nc2cccc(N(C)S(C)(=O)=O)c2)S(=O)(=O)c2ccccc2)cc1Cl | 2 | 1% | 6.5 | x | 34
COc1cccc(-n2c(SCC(=O)Nc3nccs3)nnc2-c2ccoc2C)c1 | 0 | 2% | 2.0 | -11 | -11

Next records
SMILES | Arbovirus inh | Mtb H37Rv | RecA splice inh | YopH PTP inh | Mtb bLac sens | others
C(=C\c1ccccc1)/C=N/Nc1ccc2nncn2n1 | x | 4% | 0.0 | x | -2
COc1cc(/C=C2/NC(=O)NC2=O)ccc1OCC(=O)Nc1ccc(F)cc1 | x | x | 0.5 | x | 4
CN(C)Cc1ccc(-c2nc3cccc4c3n2CCNC4=O)cc1 | x | -7% | -6.0 | x | -8
O=C(CN(Cc1ccccc1)C(=O)CNS(=O)(=O)c1ccccc1)NCc1ccco1 | x | x | 3.6 | x | -11
Fc1ccccc1NC(=S)N1CCOCC1 | x | x | 8.1 | x | -14
COc1ccc(OC)c(NC(=O)CCCN2C(=S)NC(C)(C)CC2C)c1 (stereo not drawn) | 4 | -3% | 0.6 | -29 | 6
Cn1cc([N+](=O)[O-])c(C(=O)N2CCN(Cc3ccc4c(c3)OCO4)CC2)n1 | x | x | -0.3 | x | 11
CCn1cc(C(c2ccccc2)C(C(C)=O)[N+](=O)[O-])c2ccccc21 (stereo not drawn) | x | -7% | 11 | x | 1
COc1ccc(NC(=O)c2c(NC(=O)CNCc3ccco3)sc3c2CCC3)c(OC)c1 | -3 | 9% | 6.6 | -51 | 63 | Arbovirus inh repeat=-5
COc1ccc(-c2csc(Nc3cccnc3)n2)cc1 | -13 | 9% | 0.5 | -8 | 39
CCc1ccccc1Nc1nc(N)nc(COC(=O)CCS(=O)(=O)c2ccccc2)n1 | x | x | 1.1 | x | -2
COc1ccc(Cn2cccc(NC(=O)Nc3cccc(C#N)c3)c2=O)cc1 | -10 | -7% | 1.4 | 7 | 9
OCC1(Cc2ccccc2)CCN(Cc2ccccn2)CC1 | 3 | -5% | -0.1 | x | 1
CCOC(=O)c1ccc2c(c1)nc(-c1ccccn1)n2CC | x | x | -0.3 | x | 7
CC(=O)C1CCC2C3CCC4CC(O)CCC4(C)C3CCC12C (stereo not drawn) | x | x | 11 | x | 2
Clc1cccc(-c2ccnc3nc(-n4cccc4)nn23)c1 | -6 | 14% | 2.1 | -35 | 9
CN(c1ccc(C(=O)Nc2ccccc2C(F)(F)F)cc1)S(C)(=O)=O | -6 | 7% | 2.6 | 18 | 3
Cc1ccc(NC(=O)c2ccc(NCCN)c([N+](=O)[O-])c2)cc1 | -17 | -7% | 2.6 | -31 | -10
CC1(C)CC(=O)C2=C(C1)c1c(ccc3ccccc13)NC2c1ccco1 (stereo not drawn) | -18 | 18% | 2.9 | -1 | 4
COc1ccc(N=Cc2nc(-c3ccccc3)oc2OC(C)=O)cc1 | x | -5% | 0.4 | x | 5
CC(=NCCCN1CCOCC1)c1c(O)n(Cc2ccccc2)c(=O)[nH]c1=O | 11 | -1% | 2.4 | -32 | -5
Cc1ccc(Cn2ncc3c(NCCCN(C)C)ncnc32)cc1 | x | x | -2.3 | x | -6
Cc1cc(=O)n2nc(N3CCC(C(=O)NCc4cccc(Cl)c4)CC3)sc2n1 | x | x | 1.8 | x | -6
COCCn1c(CN2CCN(c3ccc(F)cc3)CC2)nc2c1c(=O)n(C)c(=O)n2C | 2 | -4% | x | x | x
CC1(C)CC(=O)c2c(nn(-c3ccccc3)c2N)C1 | -3 | -6% | 2.6 | -46 | 11

Molecules above that contain a COOH group (2):
SMILES | Arbovirus inh | Mtb H37Rv | RecA splice inh | YopH PTP inh | Mtb bLac sens | others
O=C(O)c1ccc2cc(-c3ccccc3)[nH]c2c1 | x | x | -0.6 | x | 2
COc1cccc(-c2nc(-c3ccccc3)c(-c3ccccc3)[nH]2)c1OCC(=O)O | x | x | 8.1 | x | -3

The results go on:
SMILES | Arbovirus inh | Mtb H37Rv | RecA splice inh | YopH PTP inh | Mtb bLac sens | others
COc1ccc(N(C(=O)/C=C/c2ccccc2)C2=CC3CCC(C2)N3C)cc1 (stereo not drawn) | x | 7% | -0.3 | x | -15
CCCCC(=O)Nc1ccc2c(c1)nc(CCN1CCOCC1)n2C | 5 | -2% | -1.4 | -35 | 67
CSc1cccc(NC(=S)N(CCCN2CCCC2)Cc2cccn2Cc2ccc(Cl)cc2)c1 | -30 | 2% | 9.4 | x | 96
Oc1ccc(CNc2ccccc2)c2cccnc12 | -13 | -6% | x | -40 | -5
O=c1[nH]c(=O)n(Cc2ccc(F)cc2)c(O)c1C=NCCN1CCCCC1 | -1 | 3% | -1.9 | -25 | 7
CCCOc1ccc2cc(C(=O)NCc3ccccc3)c(=O)oc2c1 | x | x | -1.3 | x | 2
c1ccc2c(c1)N1CCN=C1N2CCN1CCCCC1 | 11 | -2% | -0.3 | -32 | 1
CSCCOC(=O)C1=C(C)NC(=O)CC1c1ccccc1Cl (stereo not drawn) | -2 | 5% | -6.0 | 4 | 5
O=C(c1ccco1)N1N=C(c2cccs2)CC1c1ccc(F)cc1 (stereo not drawn) | -6 | -2% | 13 | 0 | -6
COC(=O)c1ccc(-n2cnc(Cl)n2)c(F)c1 | 1 | 18% | 0.5 | -40 | x
Cc1ccc(C)c(N2CCN(C(=O)c3ccc4nc(N5CCOCC5)sc4c3)CC2)c1 | x | x | -3.9 | x | 97
Cc1nc2cc3c(cc2s1)OCO3 | x | -3% | 2.8 | x | -4
CC1CCN(C(=O)CSc2nnc(CNC(=O)c3ccc(F)cc3)o2)CC1 | x | x | 1.7 | x | -8
CCSc1ccc(C(=O)NCC(=O)O)cc1 | x | -15% | x | x | 8
